Screening data (PubChem)
TRPML1 ag: qHTS for Agonists of the Human Mucolipin Transient Receptor Potential 1 (TRPML1); Mucolipin-1 (Homo sapiens), Q9GZU1; TRPML1-expressing cells, Ca2+ dye fluorescence, FDSS; host cell line not named in the record; reference of the full effect not given here; activation, % (no concentration beside the values); 410,000 tested, 0.12% active; AID 624414, 2012; in the data active = activation above about 50%; inconclusive = about 30% to 50%; inactive = below about 30%; also: 0% is about no effect; the text of the record puts the active cut at 80%
Target sequence (Q9GZU1 whole entry, looked up): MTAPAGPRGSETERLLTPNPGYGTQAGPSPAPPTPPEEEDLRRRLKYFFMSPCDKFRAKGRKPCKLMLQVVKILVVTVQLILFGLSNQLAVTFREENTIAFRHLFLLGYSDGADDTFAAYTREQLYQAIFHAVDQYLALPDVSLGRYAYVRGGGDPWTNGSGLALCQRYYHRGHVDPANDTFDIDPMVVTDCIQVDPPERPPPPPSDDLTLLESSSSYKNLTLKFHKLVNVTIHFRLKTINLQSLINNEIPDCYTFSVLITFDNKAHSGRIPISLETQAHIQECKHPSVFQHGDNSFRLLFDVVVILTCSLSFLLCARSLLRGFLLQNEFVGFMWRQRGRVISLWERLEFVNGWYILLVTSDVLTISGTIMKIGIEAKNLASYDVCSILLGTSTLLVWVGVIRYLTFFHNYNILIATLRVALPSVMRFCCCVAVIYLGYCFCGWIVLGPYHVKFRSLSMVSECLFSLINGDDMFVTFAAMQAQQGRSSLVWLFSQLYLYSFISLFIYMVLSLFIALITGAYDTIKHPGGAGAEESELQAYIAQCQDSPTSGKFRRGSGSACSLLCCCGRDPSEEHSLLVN
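Kinetic FDSS Ca2+ read in Tet-induced TRPML1-DL cells (ABD Ca8 dye plus quencher, 45-90 min RT loading): baseline, then compound, then 110 s agonist window; EC80 agonist 54-4 at 4uM final added afterwards for a 110 s antagonist window.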
D2 potentiator: Beta-Arrestin HTS for Positive Allosteric Modulators of the Human D2 Dopamine Receptor: Potentiators. D(2) dopamine receptor (Homo sapiens), P14416. DiscoveRx D2 beta-arrestin cells, luminescence, 90 min; 100% = 57 uM dopamine signal. potentiation, % (concentration not given with the values). 360,000 tested, 0.23% active; active = potentiation of 50% or more; inconclusive = 30% to 50%; inactive = 30% or less;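 also: compound concentration not given in the record; tested on top of an EC20 dose of dopamine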
Target sequence (P14416 whole entry, looked up): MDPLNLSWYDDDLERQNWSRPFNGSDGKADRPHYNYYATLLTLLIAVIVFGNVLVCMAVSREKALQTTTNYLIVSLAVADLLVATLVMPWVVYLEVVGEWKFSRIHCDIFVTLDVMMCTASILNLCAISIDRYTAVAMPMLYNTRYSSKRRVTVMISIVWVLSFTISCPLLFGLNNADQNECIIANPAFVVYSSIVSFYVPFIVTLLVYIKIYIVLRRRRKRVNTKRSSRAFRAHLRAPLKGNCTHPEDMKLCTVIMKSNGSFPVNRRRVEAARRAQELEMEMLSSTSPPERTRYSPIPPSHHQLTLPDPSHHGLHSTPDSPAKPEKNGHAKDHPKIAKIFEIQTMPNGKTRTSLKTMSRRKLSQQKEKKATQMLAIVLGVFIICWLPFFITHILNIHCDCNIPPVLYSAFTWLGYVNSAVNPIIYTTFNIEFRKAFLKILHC
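D2 cells co-treated with compound plus 50 nM dopamine (EC20) for 90 min at 37 deg C to detect potentiation. Beta-arrestin recruitment was read as enzyme-fragment luminescence after 1 h at ambient temperature. Full response was set by 57 uM dopamine.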
Six1-Eya2 blk: qHTS Assay for Inhibitors of the Six1/Eya2 Interaction; AlphaScreen GST-Six1/His-Eya2 binding, biochemical; active compounds read low; control for the full effect not named in the record; 360,000 tested, 0.56% active; activity change, % (concentration not given with the values); Homeobox protein SIX1 (Homo sapiens) + Protein phosphatase EYA2 (Homo sapiens), …; in the data active = activity change below about -65%; inconclusive = about -30% to -65%; inactive = above about -30%; also: % is scaled to controls: 0 for no effect and ±100 for the full control effect
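GST-Six1 + His-Eya2 (5X stock: 250/500 nM); Tris pH 8.0, 300 mM NaCl, 0.05% BSA, 0.02% Tween 20; GSH donor/Ni acceptor beads; 1 h 37 °C dark; AlphaScreen readout.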
CtBP-E1A blk: qHTS Assay for Inhibitors of the CtBP/E1A Interaction; CtBP / adenovirus E1A interaction (AlphaScreen); AlphaScreen GST-E1A/His-CtBP binding, 1536-well; active compounds read low; control for the full effect not named in the record; activity change, % (test concentration not listed); 340,000 tested, 0.49% active; in the data active means activity change below about -65%; inconclusive means about -30% to -65%; inactive means above about -30%; also: % is scaled to controls: 0 for no effect and ±100 for the full control effect
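AlphaScreen with 125 nM GST-E1A and 125 nM His-CtBP (5X stocks) in Tris pH 8.0, 300 mM NaCl, BSA, Tween 20, TCEP. Compounds preincubated 2 h at 37 deg C, then glutathione donor/nickel acceptor beads added for 1 h at 37 deg C in dark.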
D2 ag: Beta-Arrestin HTS for Positive Allosteric Modulators of the Human D2 Dopamine Receptor: Agonists; AID 624465, 2012; D(2) dopamine receptor (Homo sapiens), P14416; DiscoveRx PathHunter D2 beta-arrestin, luminescence, 90 min; 100% = 57 uM dopamine signal; activation, % (concentration not given with the values); 360,000 tested, 0.084% active; in the data active = activation above about 40%; inconclusive = about 15% to 40%; inactive = below about 15%; also: compound concentration not given in the record; the text of the record calls up to 30% inactive
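DiscoveRx PathHunter D2 beta-arrestin cells (2,100/well) attached overnight, then compound-stimulated 90 min at 37 C in HBSS/10 mM HEPES/0.1% Tween-20 buffer; beta-galactosidase complementation read by luminescence after 1 h at ambient temperature. Dopamine 57 uM final (EC100) as control.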
PINK1 expr mod: A Quantitative High throughput Screen to Identify Chemical Modulators of PINK1 Expression | 410,000 tested, 0.2% active | PINK1 immunofluorescence, high-content cytometry, 24 h | Potency, µM (highest dose often 76.6 µM), for inactives: at the top dose activation (PINK1 increase), usual class: activators; active = well fitted activation curve with a large enough effect; inconclusive = small, poorly fitted or top-dose-only effect; inactive = flat fitted curve, though single readings scatter; cell line not stated here;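 also: potency is read from the fitted curve at half-maximal effect; % of control where 0% means no effect; nearly all actives have a fitted effect of over 65% in size; a mitochondrial uncoupler was the plate control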
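Fluorescence from anti-PINK1 antibody, together with nuclear and cell stains, was scanned on a laser-scanning cytometer. Before staining, stable-line cells were incubated 24 hours with compounds at 5 concentrations; primary antibody 12 h at 10 degrees C.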
The depositor's hits bear a star; ? = inconclusive; nt = not tested or not shown; [ ] = remark or other dose.

Second line of a record: TRPML1 ag, D2 potentiator, Six1-Eya2 blk, CtBP-E1A blk, D2 ag, PINK1 expr mod
(1) CC(C)(C)C1CCC(=NNc2ccc(S(N)(=O)=O)cc2[N+](=O)[O-])CC1 (stereo not given)
  1.1, -9, ?, ?, -4.0, 0.6%
(2) COc1ccccc1NC(=O)CSc1nnc(CC(=O)Nc2ccccc2)n1C
  -0.7, -23, -3, 0, -1.2, -1.6%
(3) COC(=O)c1cc(C(=O)NCCCN2CCOCC2)cc([N+](=O)[O-])c1
  0.2, -3, -1, -7, -5.9, 0.0%
(4) O=C(O)c1cccc(S(=O)(=O)Nc2ccc(OCc3ccccc3)cc2)c1
  1.3, 0, -8, 0, 3.4, 1.8%
(5) CCOC(=O)Cc1csc(NC(=O)CSc2nnc3ccccn23)n1
  0.5, 0, -6, -3, -2.4, 1.6%
(6) Cc1ccc(NC(=O)CSc2nnc(CNC(=O)c3ccco3)o2)cc1Cl
  -0.7, -19, -2, 0, -4.0, -1.5%
(7) COCCn1nnnc1C(c1cc2c(C)cc(C)cc2[nH]c1=O)N1CCCCCC1 (stereo not given)
  1.4, -15, -2, 6, -1.1, -4.7%[38.3 µM]
(8) CCn1c(SCC(=O)NCC2CCCO2)nnc1-c1ccccc1 (stereo not given)
  0.1, 1, 7, 0, -2.6, 0.9%
(9) C=C(C)CNC(=S)Nc1ccc(S(=O)(=O)Nc2cnc3ccccc3n2)cc1
  0.3, -1, 3, 2, -1.6, -0.1%
(10) COc1ccc(NC(=O)CSc2nnc(-c3cc(C)[nH]n3)n2N)cc1OC
  -0.3, -2, -1, 1, 1.9, -1.7%
(11) Cn1c(=O)c2nc(-c3ccc(Cl)cc3Cl)oc2c2ccccc21
  -0.7, 2, 0, -1, -4.3, 0.2%
(12) Cc1ccc(S(=O)(=O)NC2CCCCC2)c(C)c1NS(C)(=O)=O
  1.5, -1, -2, -21, -3.4, -2.7%
(13) Cc1ccc(C)c(NC(=O)CN2C(=O)CNC2=O)c1
  6.4, -6, -1, 6, -3.9, 0.3%
(14) C=CCc1cccc2cc(C(=O)N(CC)CC)c(=O)oc12
  0.4, -5, 3, 10, -2.2, 1.9%
(15) Cc1cc(C(=O)OCC(=O)NC(=O)c2cccn2C)c2ccccc2n1
  0.3, -6, 2, 7, -5.0, -0.2%
(16) CC(C)CN(C(=O)COC(=O)c1ccccc1SCC(=O)NC1CCCCCC1)C1CCS(=O)(=O)C1 (stereo not given)
  1.6, -8, -10, -2, -0.8, 0.4%
(17) COC(=O)C1CCN(C(=O)C2CCN(C(=O)[C@H](C)NS(=O)(=O)c3ccc(C)cc3)CC2)CC1
  nt, -38, 0, -16, -11, -0.9%
(18) COc1ccc(/C=C2\C(=O)ON=C2c2ccccc2)cc1OC
  -0.2, -12, 18, nt, 6.5, -1.3%
(19) O=C(NCc1ccccc1)Nc1cccc2ccccc12
  -0.1, 0, 2, 4, -2.0, 3.1%
(20) CC(=O)NC[C@H]1O[C@@H](n2ccc(N)nc2=O)[C@H](O)[C@@H]1O
  -0.3, 4, 9, 0, -2.2, -0.7%

The closing 3 entries of the part before lead into the next.
Second line of a record: TRPML1 ag, D2 potentiator, Six1-Eya2 blk, CtBP-E1A blk, D2 ag, PINK1 expr mod
(18) COc1ccc(/C=C2\C(=O)ON=C2c2ccccc2)cc1OC
  -0.2, -12, 18, nt, 6.5, -1.3%
(19) O=C(NCc1ccccc1)Nc1cccc2ccccc12
  -0.1, 0, 2, 4, -2.0, 3.1%
(20) CC(=O)NC[C@H]1O[C@@H](n2ccc(N)nc2=O)[C@H](O)[C@@H]1O
  -0.3, 4, 9, 0, -2.2, -0.7%
(21) CN(C)c1ncnc2c1ncn2[C@H]1CN(Cc2ccc(-c3ccccc3)cc2)C[C@@H](CO)O1
  -0.3, -11, -11, -3, -1.8, -0.5%
(22) Cc1cccc(COC[C@H](Cc2ccccc2)N2CCN(C(=O)c3ccc(Cl)c(Cl)c3)CCC2=O)c1
  2.0, nt, 15, 0, nt, 3.4%
(23) CC(C)Oc1ccc(C(=O)NC2=NCCS2)cc1
  0.7, 1, 5, 2, -4.0, 0.8%
(24) COc1ccc(/C(N)=N/OC(=O)c2ccc(Br)o2)cc1
  -0.3, ?, 12, -6, ?, 6.4%
(25) COc1ccc(Cl)cc1CN1CCOCC1
  -0.5, -7, 0, -1, -5.0, 1.3%
(26) C=CCNC(=O)c1onc(CSc2ccccc2)c1C(=O)O
  -0.6, 0, 0, 5, 0.5, 2.7%
(27) CC(C)c1ccc(NC(=O)[C@@H](NC(=O)N2CC(=O)Nc3ccccc32)C(C)C)cc1
  -1.7, -11, -6, -2, 3.4, 1.4%
(28) COc1ccc(CNC2C[C@H]3CCCC(=O)N4CC[C@@H](C2)[C@@H]34)cc1 (stereo not given in full)
  0.0, nt, -2, 0, -3.1, -1.2%
(29) C(=C\c1ccccc1)/CN1CCN(C(c2cc3ccccc3o2)c2nnnn2-c2ccc3c(c2)OCCO3)CC1 (stereo not given)
  1.5, -14, -28, -28, -4.5, 6.9%
(30) CCCC(NC(=O)CCc1c(C)c2cc3c(-c4ccccc4)coc3cc2oc1=O)C(=O)O (stereo not given)
  0.5, 3, -17, -68*, 0.8, -0.4%
(31) CC(Oc1cccc(Cl)c1)C(=O)Nc1ccc([N+](=O)[O-])cn1 (stereo not given)
  1.5, -14, -9, -4, 0.5, -1.9%
(32) CCc1ccc(-c2nc(CS(=O)CC(=O)O)c(C)o2)cc1 (stereo not given)
  nt, -7, 1, 2, -4.5, 0.2%
(33) O=c1c(=O)n2c(nn1Cc1ccc(F)cc1)sc1ccccc12
  -0.3, 4, -7, -8, -6.2, 0.0%
(34) O=C(O)/C=C/c1ccccc1[N+](=O)[O-]
  -0.1, -9, -12, -10, 0.0, 0.6%
(35) CCOc1cc(/C=C2\C(=O)N(Cc3ccc(C)cc3)C(C)=C2C(=O)OC)ccc1O
  1.4, 16, -11, -3, 4.0, 7.8%
(36) O=C(Cc1ccccc1)Nc1cccnc1
  -0.2, 0, 1, 5, -4.7, -1.0%
(37) Oc1ccc2[nH]ccc2c1
  1.1, 3, 3, 0, 1.1, 3.1%
(38) O=C(COC(=O)Cc1cccs1)Nc1ccccc1Cl
  -1.3, 2, 8, -3, -3.9, -0.1%
(39) CC(C)CN(CCCNC(=O)CN1C(=O)COc2ccc(S(=O)(=O)N3CCOCC3)cc21)CC(C)C
  0.2, 13, 4, 6, 1.3, -1.0%
(40) COc1cc(C(=O)/C=C/c2cccnc2)c([N+](=O)[O-])cc1OC
  -0.4, -15, -3, 1, -3.2, -1.1%

Second line of a record: TRPML1 ag, D2 potentiator, Six1-Eya2 blk, CtBP-E1A blk, D2 ag, PINK1 expr mod
(41) O=C1C2CSCN2C(=O)CN1CCCN1CCN(C(c2ccccc2)c2ccccc2)CC1 (stereo not given)
  0.1, -18, -1, nt, -7.0, -0.5%
(42) Cc1ccc(C)c(S(=O)(=O)N2CCN(CC(=O)Nc3ccc4c(c3)CCC4)CC2)c1
  0.7, -8, -6, -3, 0.2, -4.1%
(43) CC(=O)N1CCN(C(=O)COC(=O)CNC(=O)c2ccccc2C)CC1
  -0.5, -3, 0, 3, -4.9, 1.2%
(44) CC1CCN(S(=O)(=O)c2ccc(N/N=C(/C#N)C(N)=O)cc2)CC1
  2.2, -16, -22, -10, -7.5, 2.3%
(45) COc1ccc([C@H]2N[C@]3(CCCN(CC4CCCCC4)C3=O)[C@H]3C(=O)N(Cc4ccccc4)C(=O)[C@@H]23)cc1
  -0.1, -1, -7, -12, -8.1, -0.5%
(46) Cc1ccc(NC(=O)CCl)c(C)c1
  -0.7, -3, 7, 4, -5.4, 6.2%
(47) CN(CC(=O)Nc1ccc(F)cc1)C(=O)COC(=O)Cc1cccs1
  0.0, -2, 9, -24, 2.6, -2.2%
(48) Cc1ccc(O)c(NC(=O)c2cccc(NC(=O)c3ccco3)c2)c1
  -0.7, -25, -6, -6, -1.3, 0.4%
(49) N#C/C(=C(\O)c1cc(Cl)sc1Cl)c1nc2ccccc2[nH]1
  0.7, 1, 3, 4, -1.0, ?
(50) COc1ccccc1N(CC(=O)NC1CCCC1)C(=O)C1(C)CC(=O)N=C2C=CC(C)=CN21 (stereo not given)
  0.0, -7, 16, 17, -6.7, 3.5%
(51) O=C(NC1CCCCCC1)c1[nH]c(C(F)(F)F)nc1-c1ccccc1
  0.4, -1, -1, -23, -3.1, 8.3%
(52) COc1ccc(NC(=O)CN2C(=O)COc3ccc(S(=O)(=O)N4CCOCC4)cc32)c(OC)c1
  0.2, -5, 34, nt, -5.2, 3.4%
(53) CN(C)S(=O)(=O)c1cc([N+](=O)[O-])ccc1N1CCCCCC1
  -0.9, -13, -12, -3, -4.3, -0.9%
(54) O=C(NC(=S)Nc1ncccn1)c1ccccc1Cl
  0.6, -12, 5, 0, -3.5, 2.4%
(55) COCCN1C(=O)C(=O)/C(=C(/O)c2ccc(S(=O)(=O)N3CCOCC3)cc2)C1c1cccc(Cl)c1 (stereo not given)
  -1.1, -8, -13, 4, -1.4, -1.3%
(56) CC(C)N1CCC(N2CCN(CCCc3ccccc3)CC2CCO)CC1 (stereo not given)
  -0.4, -8, 16, 0, 0.4, -0.2%
(57) COc1cc(/C=N/n2nnnc2N)ccc1OC(C)C
  1.1, -4, -5, -10, -1.1, 1.1%
(58) Cc1ccc(NC(=O)CCC(=O)NNC(=O)c2ccco2)c(C)c1
  -0.6, 2, 1, 8, 0.8, 0.3%[38.3 µM]
(59) CC1CCCCN1Cc1c(O)ccc2c(=O)c(-c3nc4ccccc4s3)coc12 (stereo not given)
  nt, -4, -1, 1, -0.4, 21%
(60) Cc1cc(-c2ccc(S(=O)(=O)N(C)Cc3ccccc3)cc2)on1
  1.9, 2, -1, -2, -1.2, 1.6%
(61) CN(C)C(=O)c1ccc(NC(=O)COc2cccc3c2OC(C)(C)C3)cc1
  -0.6, -8, 8, -3, -2.4, -0.6%
(62) CC(=O)NS(=O)(=O)c1ccc(NC(=S)NC(=O)CC(C)C)cc1
  0.0, -4, 6, 23, -0.9, 0.2%
